NPR1 antag = antagonists of human natriuretic peptide receptor Npr1. P16066. HEK293 hNpr1 GloSensor cGMP, ANP-stimulated luminescence. Potency, µM (top dose mostly 46.3 µM), without a hit: top-dose activity change, negative = inhibition, actives largely listed as inhibitors. 1.6% of 76,000 active. AID 1347048; active = well fitted inhibition curve with a large enough effect; inconclusive = small, poorly fitted or top-dose-only effect; inactive = no such curve, though single readings can be large or run the other way;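 also: nearly all actives have a fitted effect of over 60% in size; nearly all hits also lower the signal before the agonist is added; a reference antagonist and vehicle were the controls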
Target sequence (P16066 whole entry, looked up): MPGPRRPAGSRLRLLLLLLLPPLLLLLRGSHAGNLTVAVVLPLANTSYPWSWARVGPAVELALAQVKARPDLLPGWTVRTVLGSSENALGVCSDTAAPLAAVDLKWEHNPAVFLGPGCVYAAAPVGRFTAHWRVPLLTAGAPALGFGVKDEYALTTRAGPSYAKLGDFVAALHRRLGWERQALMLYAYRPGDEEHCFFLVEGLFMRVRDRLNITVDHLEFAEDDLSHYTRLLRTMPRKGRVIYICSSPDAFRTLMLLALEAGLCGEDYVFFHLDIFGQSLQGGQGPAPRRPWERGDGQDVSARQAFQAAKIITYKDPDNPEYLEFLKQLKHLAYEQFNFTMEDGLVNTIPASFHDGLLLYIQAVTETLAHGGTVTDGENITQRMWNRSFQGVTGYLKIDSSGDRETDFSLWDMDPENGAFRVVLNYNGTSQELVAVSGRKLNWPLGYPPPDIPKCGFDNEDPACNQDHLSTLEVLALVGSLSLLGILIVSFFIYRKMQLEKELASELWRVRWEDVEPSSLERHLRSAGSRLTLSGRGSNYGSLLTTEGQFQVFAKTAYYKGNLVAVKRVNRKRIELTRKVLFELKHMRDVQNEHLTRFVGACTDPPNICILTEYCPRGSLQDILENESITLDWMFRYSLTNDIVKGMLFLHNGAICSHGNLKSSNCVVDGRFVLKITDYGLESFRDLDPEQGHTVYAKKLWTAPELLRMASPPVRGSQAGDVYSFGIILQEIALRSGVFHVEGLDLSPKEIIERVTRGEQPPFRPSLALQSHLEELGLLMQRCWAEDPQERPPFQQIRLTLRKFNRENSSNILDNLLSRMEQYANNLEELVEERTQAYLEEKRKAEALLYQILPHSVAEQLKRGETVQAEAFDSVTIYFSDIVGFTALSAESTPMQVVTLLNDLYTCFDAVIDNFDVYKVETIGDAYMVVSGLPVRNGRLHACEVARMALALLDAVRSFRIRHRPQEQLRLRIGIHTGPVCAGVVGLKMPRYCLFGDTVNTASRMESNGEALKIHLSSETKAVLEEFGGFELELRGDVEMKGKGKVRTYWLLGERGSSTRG
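HEK293 cells stably expressing human Npr1 and cGMP GloSensor pGS-40F, loaded 2 h with 2% GloSensor reagent, given compound 30 min at room temperature. Luminescence read before and 20 min after 0.1 nM hNppA.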
Active calls of the source: *; ? = inconclusive; [ ] = dose if it differs, or a comment. % is scaled to controls: 0 for no effect and ±100 for the full control effect; potency is read from the fitted curve at half-maximal effect.

#	NPR1 antag	SMILES
1	-13%	CCC(c1cccs1)N1C(=O)[C@H]2CN(S(=O)(=O)Cc3ccccc3F)C[C@H]2C1=O (stereo partly specified)
2	-4%	CNc1ccnc(N2CCCC(CO)(Cc3ccc(F)cc3)C2)n1 (stereo unspecified)
3	7%	O=C(CCc1cc(Cl)no1)N1CCCC(c2nc(C3CCOCC3)no2)C1 (stereo unspecified)
4	-6%[70.6 µM]	CN(C1CCc2ccccc21)S(C)(=O)=O (stereo unspecified)
5	-5%	COc1ccc(C2Cn3nnc(-c4nc(-c5cccc(C(F)(F)F)c5)no4)c3CO2)cc1 (stereo unspecified)
6	0%	COC[C@@]12CC[C@@H](N3CCOCC3)C[C@H]1CCN(c1nccc(N)n1)C2
7	1%	CCCC(=O)NCc1cc2c(nc1OC)CN(C1CCCC1)C2=O
8	-16%	Cc1ccccc1NC(=O)CCc1ccnc(N2CCCC2)c1
9	5%	O=C(CN1CCCc2nc(C3CC3)ncc2C1=O)NCc1cccnc1
10	-2%	O=C(NCc1ccc2c(c1)OCO2)C1COC2(CCCCC2)N1C(=O)Cc1cccs1 (stereo unspecified)
11	-10%	Cc1cccc2[nH]c(COCC(=O)N3CCc4c(nc[nH]c4=O)C3)nc12
12	5%	CCOc1ccccc1CN1CCCCCCNC(=O)CC1
13	-2%	CCCN(CC1CC1)C(=O)CCC[C@@H]1[C@H]2CCCN3CCC[C@@H](CN1C(C)=O)[C@@H]23
14	-12%[70.6 µM]	O=C(Nc1ccncc1)C1=NO[C@@H]2CN(c3ccccc3)C[C@H]12
15	4%	Cc1noc([C@@H]2CC(F)(F)CN2C(=O)c2ccc3c(c2)OCO3)n1
16	-2%	CCNC(=O)N1CCc2nc(N3CCN(C)CC3)sc2C1
17	-4%	COc1ccc(-n2nc(C3CCN(Cc4cccn4C)CC3)[nH]c2=O)cc1
18	21%	COc1cccc(N2CC(C(=O)NCc3cccc(Cl)c3)NC2=O)c1 (stereo unspecified)
19	-5%	COCC1CN(C(C)=O)CC12CCN(C(=O)c1nn(C)c3ccccc13)CC2 (stereo unspecified)
20	?	Cc1ccc(-c2noc([C@@H]3C[C@@H](O)CN3Cc3cccnc3)n2)cc1F
21	-5%	COCCN1C(=O)c2cccn2CC1CNC(=O)CN1CCCCCC1 (stereo unspecified)
22	4%	CN1CCN(CC(=O)N2CCCC(c3ccc(Cl)cc3)C2)C1=O (stereo unspecified)
23	14%[70.6 µM]	CN1C(=O)C2(CCN(Cc3ccc(F)cc3)C2)c2ccccc21 (stereo unspecified)
24	5%	CCn1cc(C(=O)N2C[C@@H](CN3CCN(C)CC3)[C@@H](CO)C2)cn1
25	2%	CC(C)(C)CC(=O)N1CCC2(CC1)N(c1ccccc1)C(=O)CS2(=O)=O
26	11µM*	CC(NC(=O)c1cccc2c1CCN2C(=O)Nc1ccc(F)cc1)c1ccccn1 (stereo unspecified)
27	-11%	CN(C(=O)Cn1cccc1-c1nc(-c2ccc(F)cc2)no1)c1ccccc1
28	3%	CCCNC(=O)N1C[C@@H]2C(=O)N(C(CC)c3cccs3)C(=O)[C@@H]2C1 (stereo partly specified)
29	-1%	CN1C(=O)c2cccn2CC1C(=O)Nc1cccc(Cl)c1 (stereo unspecified)
30	0%	CC(O)c1cc2n(n1)CCN(Cc1cc(=O)n3nc(C4CC4)sc3n1)C2 (stereo unspecified)

Exported as tab-separated lines: part of the list above.
No.	smiles	NPR1 antag
20	Cc1ccc(-c2noc([C@@H]3C[C@@H](O)CN3Cc3cccnc3)n2)cc1F	?
7	CCCC(=O)NCc1cc2c(nc1OC)CN(C1CCCC1)C2=O	1%
21	COCCN1C(=O)c2cccn2CC1CNC(=O)CN1CCCCCC1 (stereo unspecified)	-5%

Reprinted at random: four entries already listed.
#	NPR1 antag	SMILES
5	-5%	COc1ccc(C2Cn3nnc(-c4nc(-c5cccc(C(F)(F)F)c5)no4)c3CO2)cc1 (stereo unspecified)
12	5%	CCOc1ccccc1CN1CCCCCCNC(=O)CC1
18	21%	COc1cccc(N2CC(C(=O)NCc3cccc(Cl)c3)NC2=O)c1 (stereo unspecified)
1	-13%	CCC(c1cccs1)N1C(=O)[C@H]2CN(S(=O)(=O)Cc3ccccc3F)C[C@H]2C1=O (stereo partly specified)

Following part.
#	NPR1 antag	SMILES
31	-1%	O=C(CCn1cncn1)N1CCC(c2cc(-c3ccccc3Cl)n[nH]2)CC1
32	-12%	CC(NC(=O)c1noc(-c2ccc(F)cc2)n1)c1ccccc1 (stereo unspecified)
33	24%	COc1ccc(N2CCN(C3CCCN(CC4CC4)C3)CC2)cc1 (stereo unspecified)
34	-2%	O=C(CCc1c[nH]c2ccccc12)N1CCC(Oc2ncccc2C(=O)N2CCCCC2)C1 (stereo unspecified)
35	2%	O=C1CC(c2noc(Cc3ccc(F)cc3)n2)CN1c1ccc(F)cc1 (stereo unspecified)
36	3%	COCCNC(=O)c1ccc2c(c1)N(C)C(CC(=O)NCc1ccon1)CO2 (stereo unspecified)
37	-4%	CCC(=O)N1Cc2ccccc2OC2(CCN(C(C)C)CC2)C1
38	-7%	COc1ccccc1CCN1CCCC(CN(C)C(=O)Nc2ccccc2)C1 (stereo unspecified)
39	3%	Cn1cccc1C(=O)N1CCC(c2[nH]ncc2Cc2ccccc2)CC1
40	1%	COC(=O)[C@H](NC(=O)[C@@H]1[C@@H](NC(=O)Nc2cccc(SC)c2)CCN1C(=O)C=C(C)C)C(C)C
41	-18%	CN(C)C(=O)c1csc(N2CCN(c3cccc(Cl)c3)CC2)n1
42	0%	COc1nccnc1NC1CCN(C(=O)c2cccs2)CC1
43	5%	CC(=O)N1CCC(N2C[C@H](O)C[C@H]2c2nc(CS(=O)(=O)c3ccc(C)cc3)no2)CC1
44	15%	O=C(Cc1ccc(Cl)cc1)N1C[C@@H](CN2CCCCC2)[C@@H](CO)C1
45	5%	Cc1noc(-c2cccc(F)c2)c1C(=O)NCCc1cccc(Cl)c1
46	?	Cn1nccc1-c1ncc2c(n1)OCCN(Cc1ccccc1)C2=O
47	6%	CCCN(CC1CCOC1)S(=O)(=O)c1ccc(Cl)s1 (stereo unspecified)
48	-19%	CC(C)CN(Cc1cccnc1)C1CN(S(=O)(=O)Cc2ccccc2)C1
49	1%[70.6 µM]	CCCS(=O)(=O)Nc1ccc([C@H]2OCC(=O)N(CC(=O)N(C)C)[C@@H]2CO)cc1
50	?	O=C(c1cccnc1)N1CCCC(n2cc(-c3nc(-c4ccccc4)no3)nn2)C1 (stereo unspecified)
51	4%	COc1ccccc1OCC(=O)N1CC[C@@](O)(C2CCOCC2)[C@H](C)C1
52	3%	CCCNC(=O)N1CCCC(n2c(C)cnc2C2CC2)C1 (stereo unspecified)
53	5%	Cn1cnc(S(=O)(=O)N2CCC(c3noc(C4CC4)n3)C2)c1 (stereo unspecified)
54	0%	CCC(C)NC(=O)NCCc1noc(-c2cccnc2)n1 (stereo unspecified)
55	5%[70.6 µM]	O=C(C[C@@H]1O[C@H](CNC(=O)c2cccc(F)c2)[C@@H](O)[C@H]1O)Nc1ccccc1
56	5%	COc1ccccc1N1CCN(C(=O)CC[C@]23CC[C@](C)(O)C[C@H]2C(C)(C)C[C@@H]3NC(=O)C2CC2)CC1
57	2%	COC(=O)[C@@H]1Cc2c([nH]c3ccccc23)[C@H]2C[C@@H](N3CCOCC3)C[C@@H](c3ccc(OC(F)(F)F)cc3)N21
58	3%[70.6 µM]	CCc1cn(C[C@@H](C(=O)O)N(CC)CC)c(=O)[nH]c1=O
59	2%	CCOc1ccccc1NC(=O)N1CC[C@H]2C(=O)NCCCCCCN(Cc3ccncc3)[C@@H]2C1
60	-2%	O=C(c1nnc(CNc2ccccn2)n1-c1cccnc1)N1CCC[C@@H]1C(c1ccccc1)c1ccccc1

Entries listed so far containing a thiophene ring, fused or not (5):
#	NPR1 antag	SMILES
1	-13%	CCC(c1cccs1)N1C(=O)[C@H]2CN(S(=O)(=O)Cc3ccccc3F)C[C@H]2C1=O (stereo partly specified)
10	-2%	O=C(NCc1ccc2c(c1)OCO2)C1COC2(CCCCC2)N1C(=O)Cc1cccs1 (stereo unspecified)
28	3%	CCCNC(=O)N1C[C@@H]2C(=O)N(C(CC)c3cccs3)C(=O)[C@@H]2C1 (stereo partly specified)
42	0%	COc1nccnc1NC1CCN(C(=O)c2cccs2)CC1
47	6%	CCCN(CC1CCOC1)S(=O)(=O)c1ccc(Cl)s1 (stereo unspecified)

Continuation.
#	NPR1 antag	SMILES
61	3%	CCNC(=O)CN1CCCC(N2CCN(Cc3ccc4c(c3)OCO4)CC2)C1 (stereo unspecified)
62	3%	COc1ccc(-c2ccccc2)cc1N1C(=O)[C@@H]2C[C@H]1CN2C(=O)C(C)(C)C
63	3%	CC(=O)N1CCC(C(=O)NCc2cc3n(n2)CCN(C2CCCCC2)C3)CC1
64	-28%	COc1cccc(CC(=O)Nc2ccc3c(c2)CN(CCc2ccccc2)C(=O)C(C)O3)c1 (stereo unspecified)
65	-30%	CCn1cc(-c2ccc(Cl)cc2)cc1C(=O)NCc1ccncc1
66	4%	c1ccc(COc2ccccc2Cc2nc(-c3cccnn3)no2)cc1
67	-2%[70.6 µM]	Cc1oc(C(O)c2ccccc2F)nc1C(=O)Nc1ccc(N2CCOCC2)cc1 (stereo unspecified)
68	-1%	COCCNC(=O)C1c2ccccc2C(=O)N(Cc2ccccc2)C12CCCC2 (stereo unspecified)
69	-1%	CCOc1cc(=O)n2c(c1C(=O)Nc1cccc(Cl)c1F)CCCC2
70	-8%	O=C(CCn1ccc(=O)[nH]c1=O)N[C@H](c1ccccn1)C1CC(O)C1 (stereo partly specified)
71	0%[70.6 µM]	CN1CCCC2(C1)CN(C)c1ccc(C(=O)NCCOc3ccccc3)cc12 (stereo unspecified)
72	7%	Cc1n[nH]c(C)c1CNC(=O)C1CCCN(C2CCN(C(=O)C3CC3)CC2)C1 (stereo unspecified)
73	-7%	O=C(c1ccnnc1)N1CC(F)(F)C[C@H]1c1nc(-c2ccncc2)no1
74	1%	Cc1ccc(NC(=O)N2CCCC2c2nncn2-c2ccccc2)cc1C (stereo unspecified)
75	2%[70.6 µM]	Cc1cccc(OCC2(CNC(=O)c3ccc(F)cc3)C[C@@H](O)[C@@H](O)C2)n1 (stereo partly specified)
76	0%[70.6 µM]	COCCNc1cc(-c2cccc(C(F)(F)F)c2)nc2c(C)noc12
77	-2%	CCNC(=O)N(C1CC1)C1CCOC2(CCN(C(=O)Cc3cccc(C)c3)CC2)C1 (stereo unspecified)
78	0%	COc1cc(OC)cc(C(=O)N2CCC(n3cc(-c4nc(-c5ccccc5)no4)nn3)C2)c1 (stereo unspecified)
79	24%	CCOc1ccccc1-c1nc(-c2nnn3c2COC(c2ccccc2Cl)C3)no1 (stereo unspecified)
80	-14%	COC(=O)c1[nH]ncc1CN1CCC(c2nc(-c3ccccc3)no2)CC1
81	2%	O=C(NCc1cccs1)C1CCc2nc(N3CCN(C(=O)C4CCC4)CC3)sc2C1 (stereo unspecified)
82	-13%	Cc1ccc(C2NC(=O)N(CC(=O)Nc3ccccc3F)C3=C2C(=O)OC3)cc1 (stereo unspecified)
83	-3%	COc1ccccc1-c1onc(C)c1C(=O)NCc1ccccc1C
84	4%	Cc1ncc2c(c1CNC(=O)c1cccc(N3CCOCC3)c1)CCNC2
85	-3%	Cc1ccccc1C(=O)N1CCCN(c2cc(-c3ccc(F)cc3)[nH]n2)CC1
86	-13%	O=C(NCC12CCC=C1N(CC1CC1)C(=O)CC2)Nc1cccc(F)c1 (stereo unspecified)
87	0%	COCc1nc(C2CCCN(C(=O)c3sccc3C)C2)no1 (stereo unspecified)
88	-2%[70.6 µM]	Cn1ccc2c(C(=O)NCCc3cnc[nH]3)nc(-c3ccc(N4CCOCC4)cc3)cc21
89	0%	Cc1cccc(OCC(=O)NC2CCc3nn(CC4CC4)c(=O)n3CC2)c1 (stereo unspecified)
90	1%	COCCN1CC(C(=O)N(C)Cc2cnn(-c3ccccc3C)c2)CCC1=O (stereo unspecified)

Later entries:
#	NPR1 antag	SMILES
91	1%[70.6 µM]	NC(=O)CN1C(=O)[C@@H]2CN(C(=O)c3cccs3)CCN2C1=O
92	-2%	CCNC(=O)N1CCc2nc(N3CCN(CC)CC3)sc2C1
93	2%	CCCN(CC1CCOC1)S(=O)(=O)Cc1ccccc1 (stereo unspecified)
94	-18%[70.6 µM]	O=C1Cc2c(-c3ccccc3Oc3ccccc3)n[nH]c2CN1Cc1ccccc1F
95	6%	O=C(CSc1ccccn1)NCc1cccnc1N1CCOCC1
96	0%	CC/C=C/CC(=O)N1CCC2(CCN(Cc3cccnc3)CC2)C(CO)C1 (stereo unspecified)
97	-5%[70.6 µM]	O=C(C[C@@H]1CCNC[C@@H]1Cc1cc(COc2ccccc2)on1)NCc1cccnc1
98	-3%	O=C(CN1C(=O)NC2(CCOCC2)C1=O)NCc1ccc2c(c1)OCO2
99	-10%	Cc1ccc(CN2C[C@@H]3C(=O)N(CCCN4CCCC4=O)C(=O)[C@@H]3C2)cc1C
100	2%	COC[C@@H]1CN(C(=O)c2cccn2C)C[C@H]1c1ccncc1
101	-4%[70.6 µM]	O=C1COc2ccc(-c3ccccc3)nc2CN1
102	-4%[70.6 µM]	CC(C)CCN1CCC2(CC1)COc1ccccc1NC2=O
103	3%[70.6 µM]	CCNC(=O)[C@@H]1CCCN1C1(C(=O)NC)CCC1

Six entries from above, in markdown.
| no. | SMILES | NPR1 antag |
| --- | --- | --- |
| 95 | O=C(CSc1ccccn1)NCc1cccnc1N1CCOCC1 | 6% |
| 96 | CC/C=C/CC(=O)N1CCC2(CCN(Cc3cccnc3)CC2)C(CO)C1 (stereo unspecified) | 0% |
| 97 | O=C(C[C@@H]1CCNC[C@@H]1Cc1cc(COc2ccccc2)on1)NCc1cccnc1 | -5%[70.6 µM] |
| 98 | O=C(CN1C(=O)NC2(CCOCC2)C1=O)NCc1ccc2c(c1)OCO2 | -3% |
| 99 | Cc1ccc(CN2C[C@@H]3C(=O)N(CCCN4CCCC4=O)C(=O)[C@@H]3C2)cc1C | -10% |
| 100 | COC[C@@H]1CN(C(=O)c2cccn2C)C[C@H]1c1ccncc1 | 2% |

These rows are one share of the data, so the mix of outcomes need not match the whole.
